# Bioassay records deposited in PubChem by Broad Institute.
# DUX4 txn inh: inhibitors of DUX4-driven ZSCAN4 reporter expression, primary screen, 293T cells, Gaussia and Italica luciferase; 293T-iDUX4 ZSCAN4-Gaussia luciferase reporter, 24 h; hits give low values; activity change, negative = inhibition, % (no concentration beside the values); 0.8% of 37,000 active; AID 1224904, 2016;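 active means -10% or lower and over 25 points stronger than a control reporter; inconclusive means -10% or lower with a smaller gap; inactive means above -10%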;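 further: 0% = median of neutral control wells and -100% = median of positive control wells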
# DUX4 txn inh difference: second read-out of DUX4 txn inh, no call of its own (marks repeat the call); Gaussia minus Italica difference, %; measured here: selective DUX4 reporter inhibition;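 worked out from the two reporters; negative = selective loss of the DUX4 reporter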
# DUX4 txn inh control: second read-out of DUX4 txn inh, no call of its own (marks repeat the call); activity change, negative = inhibition, %; measured here: Italica tet-on control reporter;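 0 = neutral control and -100 = positive control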
# An asterisk follows results filed as active; ? = inconclusive; / = no result given; & = joins results of further samples. Not all compounds are listed; rates above refer to the full screens.
# Values run as follows: DUX4 txn inh, DUX4 txn inh difference, DUX4 txn inh control
O=C(C[C@H]1CC[C@H]2[C@@H](COC[C@H](O)CN2Cc2nccs2)O1)NCc1ccc(F)cc1
  9, -1, 10
C[C@@H]1CN([C@@H](C)CO)C(=O)CCCn2nncc2CO[C@@H]1CN(C)S(=O)(=O)c1ccc(-c2ccccc2)cc1
  ?, /, /
Cc1noc(C)c1S(=O)(=O)N(C)C[C@H]1OCCCC[C@@H](C)Oc2ccc(NS(=O)(=O)c3cccs3)cc2C(=O)N([C@@H](C)CO)C[C@@H]1C
  -2, -6, 4.2
COCC(=O)Nc1ccc2c(c1)C(=O)N(C)C[C@H](OC)[C@@H](C)CN(C(=O)c1ccncc1)[C@H](C)CO2
  4, -3, 6.8
O=C(C[C@@H]1CC[C@H]2[C@@H](COC[C@H](O)CN2Cc2ccncc2)O1)NCc1ccncc1
  13, 11, 1.8
O=C(c1cnccn1)N1CC(=O)N2[C@@H](CO)[C@H](c3ccc(-c4cccc(F)c4)cc3)[C@@H]2C1
  6, 7, -0.7
N#C[C@H]1[C@@H](c2ccccc2C2=CCCCC2)[C@H](CO)N1C(=O)c1cccc(F)c1
  ?, /, /
O=C(C1CCOCC1)N1CC(=O)N2[C@H](CO)[C@@H](c3ccc(C#CC4CCCCC4)cc3)[C@@H]2C1
  -6, 1, -7.5
C[C@H](CO)N1C[C@H](C)[C@@H](CN(C)C(=O)CCCN(C)C)OCc2cnnn2CCCC1=O
  3, 3, 0.7
C[C@H](CO)N1C[C@H](C)[C@@H](CN(C)S(C)(=O)=O)Oc2cc(C#CCN(C)C)ccc2S1(=O)=O
  -5, -9, 4.0
CCCC#Cc1ccc([C@@H]2[C@@H](CO)N3CCCCN(Cc4ccncc4)C[C@@H]23)cc1
  9, -3, 12
COc1cccc(S(=O)(=O)Nc2ccc3c(c2)[C@H]2C[C@@H](CC(=O)N4CCCCC4)O[C@@H](CO)[C@H]2O3)c1
  4, 5, -0.8
N#C[C@H]1[C@H](c2ccccc2)[C@H](CO)N1C(=O)c1cc(Cl)cc(Cl)c1
  -2, 2, -3.3
O=C(C[C@@H]1C[C@H]2c3cc(NC(=O)Nc4ccc(C(F)(F)F)cc4)ccc3O[C@H]2[C@H](CO)O1)NCc1ccccn1
  ?, /, /
CO[C@@H]1CN(C)C(=O)c2ccc(NC(=O)c3cccc(F)c3)cc2OC[C@@H](C)NC[C@@H]1C
  4, 5, -1.4
COc1ccc(S(=O)(=O)N2CC[C@@H]3[C@@H](CO)Nc4ccc(-c5ccc(C#N)cc5)cc4[C@@H]32)cc1
  ?, /, /
COc1cccc(-c2ccc([C@H]3[C@H]4CN(C(=O)NC(C)C)CC(=O)N4[C@H]3CO)cc2)c1
  9, 5, 3.7
COCC(=O)N1CCC2(CC1)CN(C(=O)c1ccccn1)[C@@H](CO)c1c2c2ccc(OC)cc2n1C
  15, 8, 6.4
C[C@H](CO)N1C[C@H](C)[C@@H](CN(C)C(=O)Nc2ccc3c(c2)OCO3)Oc2ccc(NS(=O)(=O)c3cccs3)cc2C1=O
  -2, -4, 1.9
COc1ccc2c3c([nH]c2c1)[C@H](CO)N(C(=O)CN1CCOCC1)CC31CCN(C(C)=O)CC1
  3, -10, 13
CC(C)(C)[S@@](=O)N1Cc2cc(C(=O)NCc3ccncc3)nc(-c3cccc(-c4ccncc4)c3)c2[C@H]1CCO
  -1, -3, 1.5
COc1ccc(NC(=O)N(C)C[C@H]2OCc3ccccc3-c3ccccc3C(=O)N([C@H](C)CO)C[C@@H]2C)c(OC)c1
  5, -3, 8.0
CO[C@@H]1CC[C@@H]2CCN(C)C(=O)[C@@H](C)CN(C)C(=O)c3cccc(C#N)c3OC[C@H]1O2
  -1, 2, -2.8
COc1cccc(CN2[C@@H]3CNC[C@H]2C3c2ccc(/C=C/c3ccccc3)cc2)c1 (stereo partly drawn)
  4, -8, 12
C/C=C/c1ccc([C@H]2[C@@H](CO)N(C(=O)C3CC3)[C@H]2CN(C)C(=O)CC)cc1
  -6, -10, 3.7
COCC(=O)N1CC(=O)N2[C@@H](CO)[C@H](c3ccc(C#CCc4ccccc4)cc3)[C@@H]2C1
  4, -10, 13
CO[C@H]1CN(C)C(=O)c2cc(NS(=O)(=O)c3cn(C)cn3)ccc2OC[C@@H](C)N(CC2CC2)C[C@@H]1C
  4, 5, -0.4
CN1CCN(C(=O)[C@@H]2[C@@H](CO)[C@@H]3Cn4c(cccc4=O)[C@H]2N3S(=O)(=O)c2ccccc2F)CC1
  5, 8, -3.2
C[C@@H]1CN([C@H](C)CO)C(=O)c2ccccc2-c2ccccc2CO[C@H]1CN(C)C(=O)[C@@H](Cc1ccccc1)N(C)C
  0, -4, 4.4
CC(=O)N1CC2(C1)[C@H](c1ccccc1)[C@H](CO)N2Cc1cc(F)ccc1F
  11, 14, -2.9
C[C@@H]1CN([C@@H](C)CO)C(=O)Cc2cc(NC(=O)Cn3cnnn3)ccc2O[C@H]1CN(C)CC1CCCCC1
  -1, 4, -4.9
O=C(CC1CC1)N1CC2(C1)[C@H](c1ccccc1)[C@@H](CO)N2C(=O)c1cnccn1
  5, -3, 8.8
CN(C)CC(=O)N1[C@H](C#N)[C@@H](c2ccc(-c3cccc(C(=O)N(C)C)c3)cc2)[C@H]1CO
  -2, -1, -0.9
CCCN1[C@@H]2c3ccc(-c4ccccc4OC)c(=O)n3C[C@H]1[C@H](CO)[C@H]2C(=O)NCc1ccccn1
  2, -6, 8.0
COC(=O)C[C@@H]1CC[C@H]2[C@H](COc3ccc(NC(=O)c4ccc(F)c(F)c4)cc3C(=O)N2C)O1
  3, 3, -0.1
C[C@@H]1CN([C@@H](C)CO)C(=O)c2c(c3ccccc3n2C)-c2ccccc2CO[C@@H]1CN(C)S(=O)(=O)Cc1ccccc1
  1, 23, -22
CCC(=O)N1C[C@@H](O)COC[C@@H]2O[C@@H](CC(=O)NCc3cc(F)cc(F)c3)CC[C@H]21
  8, 6, 2.2
CC(C)[C@@H]1COCn2nncc2CC[C@H](Cc2ccccc2)C(=O)N1
  0, 1, -1.4
CC(=O)N1CCCCN2[C@@H](CO)[C@@H](c3ccc(-c4cccc(C)c4)cc3)[C@@H]2C1
  2, -15, 17
CCC(=O)N1CC(=O)N2[C@H](CO)[C@@H](c3ccc(-c4cccnc4)cc3)[C@H]2C1
  12, 10, 1.9

# Carrying on:
SMILES	DUX4 txn inh	DUX4 txn inh difference	DUX4 txn inh control
CO[C@H](CN(C)C(=O)c1ccccc1F)[C@@H](C)CN([C@@H](C)CO)S(=O)(=O)c1ccc(Cl)cc1	8	5	2.6
CCCN1[C@@H]2Cn3c(ccc(C4=CCCCC4)c3=O)[C@H]1[C@@H](C(=O)N1CCc3ccccc3C1)[C@@H]2CO	-6	-9	2.9
CCC(=O)N1CC[C@@H]2[C@H](CO)Nc3ccc(-c4ccccc4)cc3[C@@H]21	-2	7	-8.6
COC(=O)C[C@H]1CC[C@H]2[C@@H](COC[C@@H](O)CN2S(=O)(=O)c2ccc(F)cc2)O1	3	2	1.1
CN1[C@@H]2c3ccc(C4=CCCC4)c(=O)n3C[C@H]1[C@H](CO)[C@H]2C(=O)N1CCCCC1	8	7	1.1
COc1ccccc1CNC(=O)C[C@H]1C[C@H]2c3cc(NC(=O)c4cccnc4)ccc3O[C@H]2[C@@H](CO)O1	4	0	3.8
O=C(Cc1cccnc1)N1CC(=O)N2[C@H](C1)[C@H](c1ccc(-c3cccc(F)c3)cc1)[C@@H]2CO	9	6	3.5
CCN1[C@H](C(=O)NCc2ccccc2)[C@@H](CO)[C@@H]2Cn3c(ccc(-c4cccnc4)c3=O)[C@@H]21	-4	-1	-2.3
C[C@@H]1CN([C@@H](C)CO)C(=O)CCCn2nncc2CO[C@H]1CN(C)C(=O)Nc1cccc2ccccc12	0	1	-1.3
C[C@@H]1CN([C@@H](C)CO)S(=O)(=O)c2ccc(-c3cccc(C#N)c3)cc2O[C@H]1CN(C)C(=O)c1ccccc1	1	0	0.5
O=C(NCC[C@@H]1CC[C@H](NC(=O)c2ccc3c(c2)OCO3)[C@H](CO)O1)Nc1cc(F)ccc1F	3	1	2.3
CCS(=O)(=O)N1CC2(CN(Cc3cccnc3)[C@@H](CO)c3c2c2ccc(OC)cc2n3C)C1	13	4	9.2

# Five entries picked at random from the list so far:
SMILES	DUX4 txn inh	DUX4 txn inh difference	DUX4 txn inh control
COC(=O)C[C@H]1CC[C@H]2[C@@H](COC[C@@H](O)CN2S(=O)(=O)c2ccc(F)cc2)O1	3	2	1.1
CN1[C@@H]2c3ccc(C4=CCCC4)c(=O)n3C[C@H]1[C@H](CO)[C@H]2C(=O)N1CCCCC1	8	7	1.1
COc1ccccc1CNC(=O)C[C@H]1C[C@H]2c3cc(NC(=O)c4cccnc4)ccc3O[C@H]2[C@@H](CO)O1	4	0	3.8
C[C@@H]1CN([C@@H](C)CO)S(=O)(=O)c2ccc(-c3cccc(C#N)c3)cc2O[C@H]1CN(C)C(=O)c1ccccc1	1	0	0.5
CCCN1[C@@H]2Cn3c(ccc(C4=CCCCC4)c3=O)[C@H]1[C@@H](C(=O)N1CCc3ccccc3C1)[C@@H]2CO	-6	-9	2.9

# New compounds follow
SMILES	DUX4 txn inh	DUX4 txn inh difference	DUX4 txn inh control
COCCNC(=O)[C@H]1[C@H](CO)[C@H]2Cn3c(cccc3=O)[C@@H]1N2Cc1cccc(Cl)c1	-2	1	-2.2
CS(=O)(=O)N(CC1CCC1)C[C@@H]1N[C@H](CO)[C@@H]1c1ccccc1	1	0	1.2
CC(C)NC(=O)N[C@H]1C=C[C@H](CC(=O)NCCCN(C)C)O[C@@H]1CO	4	1	3.1
O=C(C[C@@H]1CC[C@H]2[C@@H](COC[C@@H](O)CN2Cc2ccc(Cl)cc2)O1)Nc1nccs1	1	-6	7.1
CCCC#Cc1ccc([C@H]2[C@H](C#N)N(C(=O)CN3CCOCC3)[C@H]2CO)cc1	2	-4	5.7
CC(=O)N(C)C[C@H]1[C@@H](c2ccc(-c3cccc(F)c3)cc2)[C@@H](CO)N1C(C)=O	4	1	2.9
C[C@H](CO)N1C[C@H](C)[C@@H](CN(C)S(=O)(=O)c2cccs2)Oc2ccc(NC(=O)Nc3cccc4ccccc34)cc2C1=O	-4	-4	0.0
COc1cccc(-c2ccc([C@H]3[C@@H](CO)N4CCCCN(C(=O)NC(C)C)C[C@H]34)cc2)c1	6	-5	11
NCC[C@H]1CC[C@H](NS(=O)(=O)c2ccc(Cl)cc2)[C@H](CO)O1	1&4	2&1	-1.4&3.7
C[C@H](CO)N1C[C@H](C)[C@H](CN(C)Cc2ccc3cccnc3c2)OCc2cnnn2CCCC1=O	-3	2	-5.3
COCC#Cc1ccc2c(c1)O[C@@H](CN(C)C(=O)c1ccccc1)[C@@H](C)CN([C@@H](C)CO)S2(=O)=O	-1	3	-3.8
O=C(NCC1CC1)[C@@H]1[C@@H](CO)[C@@H]2Cn3c(ccc(-c4cccc(F)c4)c3=O)[C@@H]2N1CC1CCOCC1	-5	-5	0.0

# Sorted by value in DUX4 txn inh (smallest number first): three from the list above.
SMILES	DUX4 txn inh	DUX4 txn inh difference	DUX4 txn inh control
O=C(C[C@@H]1CC[C@H]2[C@@H](COC[C@@H](O)CN2Cc2ccc(Cl)cc2)O1)Nc1nccs1	1	-6	7.1
CCCC#Cc1ccc([C@H]2[C@H](C#N)N(C(=O)CN3CCOCC3)[C@H]2CO)cc1	2	-4	5.7
CC(C)NC(=O)N[C@H]1C=C[C@H](CC(=O)NCCCN(C)C)O[C@@H]1CO	4	1	3.1

# Next part:
SMILES	DUX4 txn inh	DUX4 txn inh difference	DUX4 txn inh control
COc1ccc(NC(=O)N2[C@@H]3CNC[C@H]2C3c2ccc(-c3cccc(C(=O)N(C)C)c3)cc2)cc1 (stereo partly drawn)	18&1	14&-7	4.1&7.6
CC(=O)N1[C@@H]2c3ccc(-c4ccncc4)c(=O)n3C[C@@H]2[C@@H](CO)[C@@H]1C(=O)NCc1ccccc1Cl	8	8	-0.3
CC(C)C(=O)Nc1ccc2c(c1)C(=O)N(C)[C@@H]1CC[C@@H](CC(=O)NCc3ccccc3F)O[C@H]1CO2	-2	-1	-0.7
CCCC#Cc1ccc([C@@H]2[C@@H](CO)N(S(C)(=O)=O)[C@H]2C#N)cc1	5	4	1.4
CCS(=O)(=O)N1[C@H](CO)[C@H](c2ccc(C#CCC3CCCC3)cc2)[C@@H]1C#N	0	3	-2.9
CO[C@H]1CN(C)C(=O)c2ccc(NC(=O)c3cnccn3)cc2OC[C@@H](C)N(CC2CC2)C[C@H]1C	7	3	3.4
C[C@H]1CN([C@@H](C)CO)S(=O)(=O)c2ccc(C3=CCCCC3)cc2O[C@@H]1CN(C)C(=O)C1CCCCC1	0	-3	3.3
CCC(=O)N1[C@H](CO)[C@H](c2ccc(C#CC3(O)CCCC3)cc2)[C@@H]1CNC(C)=O	-3	1	-3.4
CO[C@H]1CC[C@@H]2CCOc3ccc(C#N)cc3C(=O)N(C)C[C@@H](OC)[C@@H](C)C(=O)N(C)C[C@H]1O2	4	3	1.5
O=C(NC[C@@H]1[C@H](c2ccccc2)[C@H](CO)N1CC1CC1)c1cccnc1	1	-8	8.6
COc1ccccc1NC(=O)N1CC(=O)N2[C@H](CO)[C@@H](c3ccc(-c4ccc(F)cc4)cc3)[C@H]2C1	3	0	3.3
O=C(Nc1ccc(C(F)(F)F)cc1)N1[C@@H]2CNC[C@H]1C2c1ccc(/C=C/c2ccccc2)cc1 (stereo partly drawn)	20&-5	-2&-2	22&-3.2
O=C(C[C@H]1CC[C@@H](NS(=O)(=O)c2ccccc2)[C@H](CO)O1)NCc1ccc(Cl)c(Cl)c1	-6	6	-12
COc1cccc(C#Cc2ccc([C@@H]3[C@@H](C#N)N(C(=O)C4CCC4)[C@@H]3CO)cc2)c1	-2	-4	1.9
CCN(C[C@H]1[C@H](c2ccccc2)[C@@H](CO)N1S(C)(=O)=O)C(=O)C1CCC1	-8	-11	2.7
